# Source: PubChem BioAssay (National Center for Advancing Translational Sciences (NCATS))
# D2 ag – Beta-Arrestin HTS for Positive Allosteric Modulators of the Human D2 Dopamine Receptor: Agonists | D(2) dopamine receptor (Homo sapiens), P14416 | DiscoveRx PathHunter D2 beta-arrestin, luminescence, 90 min; 100% = 57 uM dopamine signal | activation, % (test concentration not listed) | actives 0.084% (n = 360,000); in the data active = activation above about 40%; inconclusive = about 15% to 40%; inactive = below about 15%; also: compound concentration not given in the record; the text of the record calls up to 30% inactive
# Target sequence (P14416 whole entry, looked up): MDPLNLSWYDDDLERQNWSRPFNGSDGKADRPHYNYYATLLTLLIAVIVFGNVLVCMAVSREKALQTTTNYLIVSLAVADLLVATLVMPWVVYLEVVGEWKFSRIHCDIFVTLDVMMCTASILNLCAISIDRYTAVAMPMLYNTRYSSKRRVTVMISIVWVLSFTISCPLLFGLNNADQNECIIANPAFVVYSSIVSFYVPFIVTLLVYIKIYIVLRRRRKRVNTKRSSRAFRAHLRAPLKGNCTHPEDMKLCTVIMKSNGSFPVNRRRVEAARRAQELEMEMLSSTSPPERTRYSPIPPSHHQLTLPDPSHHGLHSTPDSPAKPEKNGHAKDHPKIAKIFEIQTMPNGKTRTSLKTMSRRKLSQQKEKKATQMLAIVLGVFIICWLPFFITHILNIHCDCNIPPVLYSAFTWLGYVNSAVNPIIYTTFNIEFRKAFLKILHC
#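 Agonist mode: compounds alone added to overnight-plated D2 PathHunter cells for 90 min at 37 C, with 57 uM final dopamine (EC100) defining full response. Beta-arrestin recruitment detected by chemiluminescent reagent, read after 1 h at ambient temperature.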
# ClpP mod – qHTS Assay for Activators of ClpP; ATP-dependent Clp protease proteolytic subunit (Bacillus subtilis (strain 168)), P80244; purified B. subtilis ClpP, FRET peptide cleavage, 20 min; Potency, µM (titrated, usually from 57.5 µM), for the others: at the highest dose activity change, negative = active; actives 1.9% (n = 340,000); AID 651965, 2013; active = well fitted falling curve with a large enough effect; inconclusive = small, poorly fitted or top-dose-only effect; inactive = no such curve, though single readings can be large or run the other way; also: potency is read from the fitted curve at half-maximal effect; the source files actives as falling curves though it sought activators and does not explain the sign; nearly all actives have a fitted effect of over 65% in size; many hits overshoot -100%
# Target sequence (P80244 whole entry, looked up): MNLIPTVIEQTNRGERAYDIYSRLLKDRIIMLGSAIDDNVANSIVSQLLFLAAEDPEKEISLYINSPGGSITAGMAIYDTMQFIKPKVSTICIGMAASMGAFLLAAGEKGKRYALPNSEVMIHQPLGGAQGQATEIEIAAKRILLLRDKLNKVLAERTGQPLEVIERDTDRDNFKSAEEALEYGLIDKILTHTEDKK
#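 ClpP 10 microg/mL final, pH 8 Tris/KCl buffer with BSA, glycerol, Tween-20; compound pinned in; FRET-FV substrate; RT 20 min; Ex320/Em430; ΔFRET vs ADEP 5.8 microM, DMSO, no enzyme.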
# PINK1 modulator – A Quantitative High throughput Screen to Identify Chemical Modulators of PINK1 Expression | AID 624263, 2012 | actives 0.2% (n = 410,000) | PINK1 immunofluorescence, high-content cytometry, 24 h | Potency, µM (titrated, usually from 76.6 µM), without a hit: at the top dose activation (PINK1 increase), hits mostly activators; active = well fitted activation curve with a large enough effect; inconclusive = small, poorly fitted or top-dose-only effect; inactive = flat fitted curve, though single readings scatter; cell line not stated here;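 also: potency is read from the fitted curve at half-maximal effect; % of control where 0% means no effect; nearly all actives have a fitted effect of over 65% in size; a mitochondrial uncoupler was the plate control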
#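 PINK1 protein level read as immunofluorescence by microplate cytometer in a fixed, stained stable cell line after 24 h exposure to five compound concentrations, with CCCP as control.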
# gsp antagonist – qHTS for Antagonists of gsp, the Etiologic Mutation Responsible for Fibrous Dysplasia/McCune-Albright Syndrome: qHTS. gsp-mutant cells, cAMP HTRF, 30 min; control for the full effect not named in the record. actives 0.4% (n = 340,000). Potency, µM (top dose mostly 76.9 µM), without a hit: top-dose activity change, negative = inhibition, usual class: inhibitors. AID 624288, 2012; active = falling curve of any shape with a large fitted effect; inconclusive = falling curve, mostly with a smaller effect; inactive = flat or rising curve; cell line not stated here;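 also: intracellular cAMP measured with PDE inhibitor Ro 20-1724 present during compound exposure; potency is read from the fitted curve at half-maximal effect; % is scaled to controls: 0 for no effect and ±100 for the full control effect; nearly all actives have a fitted effect of over 65% in size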
#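 Cells, 2000/well, grown 16–24 h in DMEM 10% FBS with 0.5 mg/ml G418, then compounds plus […] (300 uM addition stock), 30 min at 37C. cAMP read by HTRF (cAMP-d2 and anti-cAMP antibody-K in lysis buffer) after 30 min RT.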
# gsp ag – qHTS for Agonist of gsp, the Etiologic Mutation Responsible for Fibrous Dysplasia/McCune-Albright Syndrome: qHTS | gsp mutant cells, cAMP HTRF, 30 min; control for the full effect not named in the record | Potency, µM (top dose mostly 76.9 µM), inactives show at the highest dose activation (cAMP increase), actives largely listed as activators | actives 0.13% (n = 340,000); active = well fitted activation curve with a large enough effect; inconclusive = small, poorly fitted or top-dose-only effect, or another doubt; inactive = no such curve, though single readings can be large or run the other way; cell line not stated here;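 also: phosphodiesterase inhibitor Ro 20-1724 added with compounds to block cAMP breakdown; potency is read from the fitted curve at half-maximal effect; nearly all actives have a fitted effect of over 60% in size; about a fifth of the inactives were tested at one dose only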
#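 Cells stably selected in G418 were plated at 2000/well, grown 16-24 hr, then given compounds in DMSO with the PDE inhibitor […] (300 uM solution added) for 30 min at 37C; cAMP was read by HTRF.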
# Sfp PPTase inh – qHTS Assay for Inhibitors of Bacillus subtilis Sfp phosphopantetheinyl transferase (PPTase) | Biochemical Sfp PPTase activity, qHTS | Potency, µM, without a hit: max response, negative = inhibition, usual class: inhibitors | 4'-phosphopantetheinyl transferase ffp (Bacillus subtilis), Q9F4F7 | actives 3.5% (n = 310,000); active = well fitted inhibition curve with a large enough effect; inconclusive = small, poorly fitted or top-dose-only effect, or another doubt; inactive = no such curve, though single readings can be large or run the other way;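 also: the enzyme is Sfp with the accession as filed and its product quenches rhodamine fluorescence; potency is read from the fitted curve at half-maximal effect; 0% = enzyme reaction without inhibitor and -100% = no enzyme wells; top concentration of the series not given in the record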
#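 Compounds were incubated with enzyme (final 15 nM) for 15 min at room temperature before substrate addition started the reaction. Fluorescence at 525 nm excitation, 598 nm emission was recorded immediately and after 30 minutes.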
# Menin-MLL FL inh – qHTS Assay for Inhibitors Targeting the Menin-MLL Interaction in MLL Related Leukemias: Competition With Fluorescein Labeled MLL-derived Peptide; 290,000 tested, under 10 active; FP activity change, % at 61.4 µM; Fluorescence polarization, fluorescein-MLL peptide displacement from menin; AID 1766, 2009; inconclusive = falling polarisation curve, or a change in total fluorescence; inactive = total fluorescence flat and polarisation flat or rising; no compound was filed as active; the % refers to the polarisation; negative = inhibition;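 also: % of control where 0% means no effect; inhibitors lower the polarisation; unlabelled MLL peptide was the positive control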
# * marks the source's active call; other numbers are inactive results; ? = inconclusive; nt = not tested or not shown; & = joins results of further samples; [ ] = remark or other dose.
# Start of the data: the first five records as a preview:
SMILES,D2 ag,ClpP mod,PINK1 modulator,gsp antagonist,gsp ag,Sfp PPTase inh,Menin-MLL FL inh
CCCC(=O)N(c1ccc2oc(C)c(C(C)=O)c2c1)S(=O)(=O)c1ccc(C)c([N+](=O)[O-])c1,3.9,1.0%,0.5%,0%,11%,-8%,-1.3
CC1=C(C(=O)Nc2ccc(C)cc2C)C(c2ccc(C)o2)NC(=S)N1 (configuration not stated),-1.5,-15%,1.9%,3%,6%,20%,6.0
O=C(NCC1CCCCC1)c1cccnc1Cl,-4.9,nt,-1.4%,10%,-33%[inhibitor],5%,3.3
CCCC(=O)Nc1ccc2nn(-c3ccc(OC)cc3)nc2c1,1.2,0.1%,-1.1%,3%,10%[15.4 µM],0%,1.0
CCOP(=O)(OCC)/C(C#N)=C/c1cc(OC)ccc1OC,-0.8,-3.9%,4.3%,-3%,?,9%,-8.0

# The whole of this part, repeating the preview:
SMILES,D2 ag,ClpP mod,PINK1 modulator,gsp antagonist,gsp ag,Sfp PPTase inh,Menin-MLL FL inh
CCCC(=O)N(c1ccc2oc(C)c(C(C)=O)c2c1)S(=O)(=O)c1ccc(C)c([N+](=O)[O-])c1,3.9,1.0%,0.5%,0%,11%,-8%,-1.3
CC1=C(C(=O)Nc2ccc(C)cc2C)C(c2ccc(C)o2)NC(=S)N1 (configuration not stated),-1.5,-15%,1.9%,3%,6%,20%,6.0
O=C(NCC1CCCCC1)c1cccnc1Cl,-4.9,nt,-1.4%,10%,-33%[inhibitor],5%,3.3
CCCC(=O)Nc1ccc2nn(-c3ccc(OC)cc3)nc2c1,1.2,0.1%,-1.1%,3%,10%[15.4 µM],0%,1.0
CCOP(=O)(OCC)/C(C#N)=C/c1cc(OC)ccc1OC,-0.8,-3.9%,4.3%,-3%,?,9%,-8.0
Oc1cccc(-c2nnc(-c3cccc(O)c3)nn2)c1,-7.0,0.6%,0.8%,-7%,-28%,nt,nt
O=C(CSc1ccccc1)Nc1ccc2c(c1)C(=O)NC2=O,-1.0,-0.4%,-1.0%,-9%,?,2%,0.7
CC(Sc1nc(NCc2ccccc2)nc(N(C)C)n1)C(=O)Nc1ccccc1 (configuration not stated),2.7,0.9%,?,-6%,1%,15%,-1.1
COc1ccc(-c2nc(-c3ccc(Br)cc3)no2)c(OC)c1,-0.6,-16%,6.6%[38.3 µM],5%,-8%,-14%,1.7
Cn1ccnc1SCC(=O)c1ccc(O)cc1,-9.8,2.0%,1.3%,6%,9%,-19%,3.3
Cc1ccc(S(=O)(=O)N2CCOCC2)cc1NC(=O)CN1CCN(C)CC1,-0.4,-0.8%,2.3%,4%,-9%,nt,nt
CCC(CC)c1nnc(NC(=O)CCNC(=O)c2ccccc2Cl)s1,-2.2,nt,0.8%,7%,1%[15.4 µM],-10%,0.1
CCN1CCN(CC(O)COc2ccc3c(c2)CCC3)CC1 (configuration not stated),-4.6,-2.3%,-1.1%,12%,?,14%,0.8
COc1ccc(CN2CCC(CO)(CCOc3ccccc3)CC2)cc1C,-3.7,0.6%,0.7%,11%,-5%[15.4 µM],-3%,3.9
Clc1ccccc1N=C1NN=C(c2cccs2)CS1,-3.0,nt,?,4%,0%[15.4 µM],-6%,10
COc1ccccc1CNC(=O)c1oc2ccc(S(=O)(=O)N3CCCC3)cc2c1C,-4.1,-0.2%,2.0%,14%,11%,4%,0.4
CC1(c2nnc(-c3ccncc3)o2)CC(c2ccccc2)=NO1 (configuration not stated),-2.7,-7.2%,-1.2%,6%,nt,nt,nt
CC(C)(C)C1CCC(=NNC(=O)C(=O)NCc2ccco2)CC1 (configuration not stated),-1.5,0.0%,0.1%,-4%,5%[15.4 µM],3%,-2.7
O=c1ccn(CCOc2ccc(Cl)cc2)c(=O)[nH]1,0.4,-0.9%,-0.1%,-3%,12%,4%,2.2
COC(=O)[C@H](Cc1ccccc1)NCCCn1cnc(C(=O)Nc2ccc(C)c(C)c2)n1,-0.9,-0.3%,1.0%,-6%,nt,nt,nt
CC(OC(=O)Nc1cccc(Cl)c1)C(=O)O (configuration not stated),-2.6,nt,1.2%,13%,-14%[15.4 µM],18%,5.6
O=C(COC(=O)c1cc(S(=O)(=O)N2CCCCC2)ccc1N1CCOCC1)c1ccccc1Cl,-2.3,-25%,5.1%,nt,-2%,nt,nt
CCOC(=O)CCc1nn(C)c(=O)c2ccccc12,0.4,3.0%,2.1%,-3%,-28%,19%,-1.2
COc1ccc(NC(=S)N2CCN(S(=O)(=O)c3ccc(F)cc3)CC2)cc1,-5.1,0.4%,2.4%,-5%,-14%,0%,nt
O=C1c2ccccc2C(Nc2cccnc2)N1Cc1ccccc1 (configuration not stated),2.5,-3.4%,2.7%,-14%,-4%,10%,2.3

# (further entries)
SMILES,D2 ag,ClpP mod,PINK1 modulator,gsp antagonist,gsp ag,Sfp PPTase inh,Menin-MLL FL inh
CCCC(C)NC(=O)CSCc1ccc(OC)cc1 (configuration not stated),3.2,nt,-0.5%,nt,-16%[15.4 µM],18%,2.5
Cc1ccccc1NC(=O)NCCCN1CCN(C2CCCCC2)CC1,-0.3,-0.9%,-3.1%,3%,-4%,22%,0.7
CCn1c(SCC(=O)Nc2sc(C)c(C)c2C#N)nnc1C(C)C,0.7,-1.2%,-0.8%,-31%,?,-6%,5.8
COc1ccc2c(c1)C(SCC(=O)NCc1ccccc1)CC(C)(C)O2 (configuration not stated),-0.4,-3.2%,1.5%,2%,-28%,-5%,5.3
O=C(CC1Sc2ccccc2NC1=O)c1ccc(Br)cc1 (configuration not stated),-2.0,-3.8%,?,-22%,10%,6%,4.9
CCCNS(=O)(=O)c1ccc(NC(=O)c2ccccn2)cc1,0.3,-1.6%,0.9%,23%,?,-5%,0.0
CCOC(=O)c1ccc(NC(=O)Cn2c(-c3nonc3N)nc3ccccc32)cc1,2.7,-0.2%,4.1%,-3%,?,-10%,6.0
Cc1ccc(S(=O)(=O)Nc2ccccc2C(=O)NCc2cccnc2)cc1,-4.2,nt,5.8%,-4%,-8%[15.4 µM],13%,-0.2
NC(=O)c1nsc(C(=O)N(Cc2ccc(F)cc2)C(C(=O)NC2CCCC2)c2ccco2)c1N (configuration not stated),0.1,-0.1%,-0.2%,1%,2%[15.4 µM],6%,3.6
O=C(CCc1nc(-c2ccccc2)no1)Nc1cccnc1,-0.7,nt,1.7%,-10%,-1%[15.4 µM],5%,4.8
COc1ccccc1-c1nc(C#N)c(N2CCC(Cc3ccccc3)CC2)o1,-1.9,-13%,1.0%,-17%,10%,-13%,-2.0
COC(=O)CNC(=O)c1c(C)cc(=O)oc1C,-1.4,0.8%,nt,5%,?,9%,0.2
CCOc1ccccc1CN1CCC(N2CCOCC2)CC1,-6.0,-1.7%,-0.2%,3%,?,?,-1.5
COc1cccc(OC)c1CC1SC(=O)NC1=O (configuration not stated),-1.7,nt,-1.4%,-7%,5%,-1%,-2.3
COc1ccccc1CNC(=O)C1CCC(CNc2c(N3CCOCC3)c(=O)c2=O)CC1 (configuration not stated),-4.9,1.4%,1.6%,4%,25%,7%,1.9
COC(=O)CC1SC(=O)NC1=Nc1ccc(OC)cc1 (configuration not stated),-3.4,-18%,-0.7%,6%,3%,-21%,-6.0
O=C1CS/C(=N/N=C\c2ccn[nH]2)N1,-4.2,-1.0%,0.2%,-5%,-1%[15.4 µM],56µM*,5.1
CC1=NN(c2nc(-c3ccc(C)cc3)cs2)C(=O)C1N=Nc1ccc2ccccc2c1 (configuration not stated),-4.1,2.0%,-0.9%,1%,5%,11%,2.7
CC(Oc1cccc(F)c1)c1ccnc2nc(/N=C/N(C)C)nn12 (configuration not stated),-4.2,nt,-1.1%,-8%,-43%[15.4 µM],-8%,-12
COc1ccc(/C=C/C(=O)Nc2ccc(S(=O)(=O)Nc3cc(C)nc(C)n3)cc2)cc1OC,-1.2,nt,-2.1%,-6%,6%[15.4 µM],5%,4.0
CCOC(=O)/C(C(C)=O)=C1/OC(=O)c2ccccc21,-1.1,-15%,nt,8%,-38%[inhibitor],1%,3.0
COc1cc(C(=O)NC2CC3CCCC(C2)N3Cc2ccccc2)cc(OC)c1OC (configuration not stated),-2.1,-1.6%,0.8%,4%,-1%,16%,-4.1
COC(=O)[C@@]1(Cc2ccc(F)cc2)[C@H]2c3cc(C(=O)N4CCCC4)n(CCc4ccccn4)c3C[C@H]2CN1C(=O)c1ccccc1,-3.2,3.5%,0.4%,-21%,?,-22%&-6%,-0.2&-3.6
COc1ccc(/C=N/NC(=O)c2ccn[nH]2)cc1COc1ccc([N+](=O)[O-])c(C)c1,-2.5,1.0%,2.2%,?,2%[15.4 µM],-1%,0.5
COc1ccc(NC(=O)c2ccco2)cc1NC(=O)c1ccccc1[N+](=O)[O-],-2.7,-2.7%&-0.6%,0.2%&1.0%,10%,-17%,19%,nt
CCCCCn1c(N2CCC(C(N)=O)CC2)nc2c1c(=O)[nH]c(=O)n2C,-1.7,-2.8%,0.8%,4%,-12%,12%,2.0
CCC(CO)Oc1cc(NC(=O)c2ccc(OC)cc2)c2ncn(C(C)C)c2c1 (configuration not stated),8.5,-0.1%,0.3%,-9%,-3%,nt,nt
COc1ccc(-n2nnnc2/C=C/Nc2cc(C(F)(F)F)ccc2OC)cc1,-2.6,28µM*,4.8%,-12%,?,9%,0.0

# Copied from the list.
# D2 ag, COc1ccc(/C=N/NC(=O)c2ccn[nH]2)cc1COc1ccc([N+](=O)[O-])c(C)c1 → -2.5
# D2 ag, CCC(CO)Oc1cc(NC(=O)c2ccc(OC)cc2)c2ncn(C(C)C)c2c1 (configuration not stated) → 8.5
